HTT promoter inh = Primary qHTS for Identification of Small Molecule Inhibitors of Huntingtin Promoter Activity; HEK293 HTT promoter firefly luciferase reporter (activity 0% = vehicle and -100% = no light), 24 h; Potency, µM (top dose mostly 57.5 µM), for the others: top-dose activity change, negative = inhibition, usual class: inhibitors; actives 0.93% (n = 48,000); active means well fitted inhibition curve with a large enough effect; inconclusive means small, poorly fitted or top-dose-only effect; inactive means no such curve, though single readings can be large or run the other way; further: nearly all actives have a fitted effect of over 50% in size
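Firefly luciferase signal from promoter-reporter HEK293 cells was scaled between vehicle (0%) and zero RLU (-100%). Compounds were tested at final concentrations of up to 57.5 uM over 24 h at 37 degrees C. PTC124 at 50 uM final served as control inhibitor.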
PMP22 txn prim = Cell-based coincidence reporter assay to measure PMP22 gene transcription in S16 Pmp22-F2sN cells - Primary screen | S16 Pmp22-F2sN Schwann cells (luciferase reporters placed in the Pmp22 gene), FLuc/NLuc coincidence luminescence, 24 h | Potency, µM (series often up to 57.5 µM), inactives show top-dose activity change, negative = inhibition, actives largely listed as inhibitors | actives 2% (n = 43,000); active = clear falling dose curves in both reporters; inconclusive = both reporters move, but less clearly or upward; inactive = either reporter flat; the % is the NLuc reporter signal; further: on the % scale 0 is the no-effect control and ±100 the full control effect; some results filed as inactive show a strong effect at the top dose
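Reporter cells (S16 Pmp22-F2sN, 500–1,000 per well) exposed to compounds for 24 h, 37C, 5% CO2; lysis with FLuc read after 10 min, then Stop&Glo and NLuc read after 10 min.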
* hit, by the source's call; ? = inconclusive; · = not tested or not shown; & = joins results of further samples; [ ] = another dose, or the depositor's remark. Potency means the concentration at half of the fitted maximal effect.

Fields – HTT promoter inh, PMP22 txn prim
COCCNC(=O)c1cccc(-n2c(C)nc3cccnc32)c1
 : -20%, -1%
CC(C)CCNC(=O)Nc1ccc2c(c1)N(Cc1ccccc1)C(=O)c1ccccc1S2
 : ?, -17%
CCOC(=O)c1c(S(=O)(=O)N2CCCC(C(=O)Nc3ccc(C)cc3C)C2)c(C)n(CC)c1C (stereo not given)
 : -7%, 8%
Cc1nc(C)c(CCNS(=O)(=O)c2ccc(C)c(C)c2)s1
 : ?, ?
Cn1ncc(C(=O)N2CCN(c3ccccc3F)CC2)c1C1CCN(C(=O)OC(C)(C)C)CC1
 : -4%, -17%
O=C(Cn1cc(S(=O)(=O)Cc2cccc(Cl)c2)c2ccccc21)NCCc1ccccc1
 : -1%, -3%
COc1ccc(Oc2nc3c(C)cccn3c(=O)c2/C=C(\C#N)c2nc3ccccc3[nH]2)cc1
 : 1%, 7%
COc1ccc(C2=C(C)C(N3CCC(C(=O)Nc4ccc(F)cc4C)CC3)=NS2(=O)=O)cc1
 : -19%, -1%
COc1ccc(NC(=O)c2csnn2)cc1Cl
 : 44%[activator], 8%
COc1ccc(NC(=O)c2oc3ccccc3c2NC(=O)C23CC4CC(CC(C4)C2)C3)c(OC)c1
 : -11%, -18%
CCOc1ccc(NC(=O)c2sc3nc4c(cc3c2N)CN(Cc2ccccc2)CC4)cc1
 : -24%, -3%
CC(NS(=O)(=O)c1ccc2c(c1)CCN2C(=O)CCCC(=O)O)c1ccccc1 (stereo not given)
 : 5%, -15%
COc1cc(OC)c(OC)cc1/C=C/c1nc2ccccc2c(=O)n1-c1ccc(Br)c(C)c1
 : ?, -15%
CCOC(=O)c1c(-c2ccccc2)csc1NC(=O)c1cc(-c2ccc(F)cc2)on1
 : 0%, 13%
CNS(=O)(=O)c1cn(CC(=O)Nc2ccc(C)cc2C)cc1S(=O)(=O)NC
 : 3%, -15%
O=C(c1ccccc1)C(O)c1ccccc1 (stereo not given)
 : -1%, ·
COc1ccc(-n2cc(C(=O)NCCc3cc(OC)ccc3OC)c3ccccc3c2=O)cc1
 : -19%, -15%
COc1cc(C(=O)N2CCC(N3CCN(C)CC3)CC2)ccc1Nc1ncc2c(n1)N(C)c1ccccc1C(=O)N2C
 : 13%, ·
CC(C)CN(CCCNC(=O)CN1N=C(c2ccccc2)CCC1=O)CC(C)C
 : -8%, ?
Cc1ccccc1-c1cc2nccc(-c3cc(Cl)ccc3O)n2n1
 : 1%, ?
CC(Nc1ncnc2c1cnn2-c1cccc(Cl)c1)c1ccccc1 (stereo not given)
 : 3%, ?
CCOC(=O)C1CCN(C(=O)CN2c3ccc(CC)cc3-c3ccccc3S2(=O)=O)CC1
 : -10%, 9%
CCc1ccc(C2CC(=O)c3c([nH]c(C(=O)OC4CCC(C)CC4)c3C)C2)cc1 (stereo not given)
 : -4%, -4%
O=C(/C=C\c1ccc2c(c1)OCO2)NC1CC(=O)N(c2ccc(Cl)cc2)C1 (stereo not given)
 : -3%, 0%
COc1ccc(N2CCN(C(=O)C3CCCN(S(=O)(=O)c4ccc5c(c4)oc(=O)n5C)C3)CC2)cc1 (stereo not given)
 : -18%, ?
CCOC(=O)c1c(NC(=O)c2cc(=O)c3cc(C)ccc3o2)sc2c1CCCC2
 : 6%[11.5 µM], -3%
COc1ccc(C)cc1NC(=O)c1cnc2ccc(C)cn2c1=O
 : -14%, -7%
COc1ccc(-c2csc3ncnc(Nc4ccc(OC)cc4OC)c23)cc1
 : ?, ?
O=C(NCc1ccc(F)cc1)C1CCN(c2ncnc3c2nc2n3CCCCC2)CC1
 : -1%, -6%
O=C1[C@@H]2CSC(c3ccc(F)cc3)N2C(=O)N1c1ccc(Cl)cc1 (stereo not given in full)
 : -35%, -15%

Sorted by count of non-hydrogen atoms (descending): 6 of the compounds above.
Fields – HTT promoter inh, PMP22 txn prim
COc1cc(C(=O)N2CCC(N3CCN(C)CC3)CC2)ccc1Nc1ncc2c(n1)N(C)c1ccccc1C(=O)N2C
 : 13%, ·
COc1ccc(-n2cc(C(=O)NCCc3cc(OC)ccc3OC)c3ccccc3c2=O)cc1
 : -19%, -15%
CCOC(=O)c1c(NC(=O)c2cc(=O)c3cc(C)ccc3o2)sc2c1CCCC2
 : 6%[11.5 µM], -3%
CC(Nc1ncnc2c1cnn2-c1cccc(Cl)c1)c1ccccc1 (stereo not given)
 : 3%, ?
Cc1ccccc1-c1cc2nccc(-c3cc(Cl)ccc3O)n2n1
 : 1%, ?
Cc1nc(C)c(CCNS(=O)(=O)c2ccc(C)c(C)c2)s1
 : ?, ?

Next part:
Fields – HTT promoter inh, PMP22 txn prim
Cc1ccc(-n2ncc3c(N4CCN(c5ccccc5)CC4)ncnc32)cc1C
 : -9%, 8%
O=C(c1ccc([N+](=O)[O-])cc1)N(Cc1ccco1)c1ccccn1
 : -8%, -7%
CCCCn1c(=O)c2oc3ccccc3c2n(Cc2cccc(C)c2)c1=O
 : 4%, -11%
CC(C)c1nn2c(=O)cc(COC(=O)C3CCCCC3)nc2s1
 : -2%, -8%
Cc1cccc(N(CC(=O)N(C)Cc2ccccc2)S(=O)(=O)c2ccccc2)c1C
 : -27%, ?
Cc1ccc2c(=O)cc(C(=O)Nc3cccc(C(F)(F)F)c3)oc2c1C
 : -1%[11.5 µM], -22%
CC1=C(C(=O)OCC2CCCCC2)C(c2ccc(Cl)cc2Cl)CC(=O)N1 (stereo not given)
 : -15%, ?
CC(C(O)c1ccc(O)cc1)N1CCC(Cc2ccccc2)CC1 (stereo not given)
 : 3%, ·
O=C(Cn1c(=O)n(Cc2nc(-c3ccccc3)no2)c(=O)c2cc3c(cc21)OCO3)Nc1cccc(C(F)(F)F)c1
 : ?, 44%
CC(=O)Nc1ccc(NC(=O)C2Cc3ccccc3N2C(=O)c2ccccc2)cc1 (stereo not given)
 : 0%, -1%
CCS(=O)(=O)c1ncc(N(Cc2ccco2)Cc2ccccc2F)c(C(=O)Nc2cccc(Cl)c2)n1
 : -26%, -3%
COc1ccccc1Nc1nc(-c2ccccc2Cl)c2cc(Br)ccc2n1
 : -14%, 1%
CN1C(=O)c2ccccc2Sc2ccc(NC(=O)Cc3ccc(Cl)cc3)cc21
 : ?, ?
CC(=O)N1CCc2cc(CNS(=O)(=O)c3cccs3)ccc21
 : 49%[activator], ?
CCN(C(=O)CSc1nnc(-c2cc(OC)c(OC)c(OC)c2)o1)c1ccccc1
 : -25%, -26%
NCc1c[nH]c(=S)n1[C@H]1CCc2c(F)cc(F)cc2C1
 : -9%, ·
CCOC(=O)c1cccc(NC(=O)C2CCCN(c3nnc(C)c4c(C)n(-c5ccccc5)nc34)C2)c1 (stereo not given)
 : -3%, -16%
CCOc1ccc(-c2nc3cc(NC(=O)COc4cccc(C)c4)ccc3o2)cc1
 : -19%, ?
O=C(Cc1cccs1)NC1CC(=O)N(c2ccc(F)cc2)C1 (stereo not given)
 : -2%, 9%
COc1cccc(C(=O)NCC(c2ccc3c(c2)OCO3)N2CCN(C)CC2)c1 (stereo not given)
 : -9%, -14%
COc1ccc(CC(=O)Nc2ccc(-c3nc4ccccc4s3)c(C)c2)cc1OC
 : -32%, ?
CCN1CCN(c2cc(C)c3cc(NC(=O)/C=C/c4ccc(OCCC(C)C)cc4)ccc3n2)CC1
 : -4%, ?
O=C(Nc1ccccc1F)c1oc2ccccc2c1NC(=O)c1c(F)cccc1F
 : -19%, -36%
Cc1[nH]c2ccccc2c1C1(O)C(=O)N(Cc2ccccc2)c2ccc(Br)cc21 (stereo not given)
 : -19%, 16µM*
Cc1cccc(N2CCN(C(=O)c3noc4c3CCCCC4)CC2)c1C
 : -4%, -2%
CO[C@]1(NC(=O)CSC(F)F)C(=O)N2C(C(=O)O)=C(CSc3nnnn3CCO)CO[C@H]21
 : 7%, ·
CN(Cc1ccccc1)c1ccc(-c2nc(-c3ccccc3)no2)cc1[N+](=O)[O-]
 : -1%, -8%
O=C(Nc1cccc(Cl)c1)c1cc(S(=O)(=O)N2CCC3(CC2)OCCO3)ccc1F
 : ?, 3%
Cc1cccc(C(=O)N2CCc3cc(CNC(=O)c4ccc(Br)o4)ccc32)c1
 : ?, ?
CC(=O)N1CCCc2cc(S(=O)(=O)N(Cc3ccccc3)C(C)C)ccc21
 : ?, ?
CCOc1ccc(CNC(=O)C2CCN(Cc3cc4ccccc4n3Cc3ccccc3C)CC2)cc1
 : 0%, -16%
CCS(=O)(=O)Nc1ccc(-c2cn3ccsc3n2)cc1
 : 67%[activator], -15%
O=C(c1ccc2c(c1)N(Cc1cccc(Cl)c1)C(=O)c1ccccc1S2(=O)=O)N1CCc2ccccc21
 : ?, -33%
O=C(NCCCN1CCCCC1)c1sc2ncccc2c1-n1cccc1
 : 18%, ?
O=C(CN1C(=O)COc2ccc(S(=O)(=O)NC3CCCC3)cc21)Nc1ccc(Cl)cc1F
 : -18%, 5%
Cc1c(F)cccc1NC(=O)C1CCCN1S(=O)(=O)c1ccc(F)cc1 (stereo not given)
 : ?, -9%
CC(C)CN(CCCNC(=O)CN1N=C(c2ccc(Cl)cc2)CCC1=O)CC(C)C
 : -11%, -21%
COC(=O)c1ccc2nc(C)cc(Nc3ccc(O)cc3)c2c1
 : -5%, ?
CCN(Cc1nc(-c2cccc(C)c2)no1)S(=O)(=O)c1ccc(C)cc1
 : -30%, ?
CC(C)(C)NC(=O)C1CCN(c2nc3ccccc3nc2C(F)(F)F)CC1
 : -7%, 5%
Cc1ccc(C(=O)Nc2ccc(OCc3cc(=O)n4c(C)csc4n3)cc2)cc1
 : 5%, -9%
COCCCNC(=O)Cn1c(=O)n(-c2ccc(Cl)cc2)c(=O)c2c3c(sc21)CCCCC3
 : -12%, ?
CCC(C)NC(=O)CSc1nc2c(sc3ccccc32)c(=O)n1CCc1ccccc1 (stereo not given)
 : -5%, -16%
COc1cc(CNC(=O)c2ccc3nc(CCc4ccccc4)oc3c2)cc(OC)c1OC
 : ?, ?
Cn1ncc2c(Nc3cc(C(F)(F)F)ccc3Cl)ncnc21
 : -10%, ?
COc1ccc(N2CCN(C(=O)CCn3cnc4onc(-c5ccc(F)cc5)c4c3=O)CC2)cc1
 : ?, ?
CCc1nnc2c(Nc3ccc(Br)c(C)c3)nc3ccccc3n12
 : -8%, 15%
Cc1ccccc1CS(=O)(=O)c1ncc(Cl)c(C(=O)Nc2nnc(C(C)C)s2)n1
 : ?, 7µM*
COc1cc(C2CC(=O)N(CC(=O)Nc3ccccc3F)c3ccccc3S2)cc(OC)c1OC (stereo not given)
 : ?, ?
Cc1ccc2sc(N3CCN(C(=O)CCS(=O)(=O)c4ccc(Cl)cc4)CC3)nc2c1C
 : 0%, ?

Structural class, the entries above containing a COOH group.
Fields – HTT promoter inh, PMP22 txn prim
CC(NS(=O)(=O)c1ccc2c(c1)CCN2C(=O)CCCC(=O)O)c1ccccc1 (stereo not given)
 : 5%, -15%
CO[C@]1(NC(=O)CSC(F)F)C(=O)N2C(C(=O)O)=C(CSc3nnnn3CCO)CO[C@H]21
 : 7%, ·

New compounds follow
Fields – HTT promoter inh, PMP22 txn prim
Cc1ccc(NC(=O)CSc2nc3ccccc3nc2Cc2ccccc2)c(Cl)c1
 : -9%, -34%
CC1CCC(NC(=O)C2(C)Cc3ccccc3C(=O)N2Cc2ccccc2Cl)CC1 (stereo not given)
 : -14%, -12%
Cc1ccccc1CN1C(=O)c2ccccc2S(=O)c2ccc(C(=O)NC3CCC(C)CC3)cc21 (stereo not given)
 : ?, ?
Cc1cc(C(C)(C)C)c(O)c(C)c1CC1=NCCN1
 : 1%&2%, ·
COc1cccc(CNC(=O)c2ccc3c(c2)sc2nc(-c4cccc(OC)c4)cn23)c1
 : 2%, -16%
COc1ccc(N2CCN(C(=O)CCn3nc(C)c(S(=O)(=O)N4CCCC4)c3C)CC2)cc1
 : ?, -4%
COc1ccc(CCNC(=O)c2cc3c(=O)n4cccc(C)c4nc3n2C)cc1
 : 2%, -3%
Cc1cc(C)c(NC(=O)Cn2c(=O)oc3cc(S(=O)(=O)N4CCCCCC4)ccc32)c(C)c1
 : 10µM*, ?
Cc1ccc(C(=O)c2cn(CC(=O)NCc3ccccc3)c3nc(C)ccc3c2=O)cc1
 : 17%, -19%
O=C(NCCc1ccccc1)c1ccc(Cn2c(SCc3ccccc3)nc3cccnc32)cc1
 : 25%, 9%
Cc1ccccc1Oc1nc2c(c(=O)n(C)c(=O)n2C)n1Cc1ccc(Br)cc1
 : -9%, 1%
O=C(NC1CCCC1)c1ccc2c(=O)n(Cc3ccccc3)c(SCc3ccccc3)nc2c1
 : -6%, -42%
CC(C)OCCCN1C(=O)c2[nH]nc(-c3ccccc3O)c2C1c1ccc(OCc2ccccc2)cc1 (stereo not given)
 : ?, ?

Some of the entries so far, as tab-separated lines.
compound	HTT promoter inh	PMP22 txn prim
Cc1ccccc1CN1C(=O)c2ccccc2S(=O)c2ccc(C(=O)NC3CCC(C)CC3)cc21 (stereo not given)	?	?
Cc1cc(C(C)(C)C)c(O)c(C)c1CC1=NCCN1	1%&2%	·

Compound activity deposited in PubChem by National Center for Advancing Translational Sciences (NCATS).
